High-throughput results: PubChem BioAssay, National Center for Advancing Translational Sciences (NCATS)
Vaccinia Venus – vaccinia inhibition (Venus reporter). Vaccinia virus Venus reporter expression, fluorescence. Potency, µM (highest dose often 36.5 µM), for the others: at the top dose activity change, negative = inhibition, hits mostly inhibitors. 0.46% of 330,000 active. AID 720580; active means well fitted inhibition curve with a large enough effect; inconclusive means small, poorly fitted or top-dose-only effect; inactive means no such curve, though single readings can be large or run the other way; tested in A549 cells; also: nearly all actives have a fitted effect of over 30% in size; inactives centre near -10
VACV mCherry inh – vaccinia inhibition (mCherry reporter) | Vaccinia virus mCherry reporter infection, fluorescence; about a quarter of the inactives have no number | Potency, µM (doses to about 36.5 µM), inactives show at the top dose activity change, negative = inhibition, actives largely listed as inhibitors | 0.63% of 310,000 active; active = well fitted inhibition curve with a large enough effect; inconclusive = small, poorly fitted or top-dose-only effect; inactive = no such curve, though single readings can be large or run the other way; tested in A549 cells; also: nearly all actives have a fitted effect of over 35% in size; inactives centre near -10
* = called active by the depositor; i = inactive; ? = inconclusive; / = no result given; [ ] = another dose, or the depositor's remark. % is scaled to controls: 0 for no effect and ±100 for the full control effect; potency is read from the fitted curve at half-maximal effect.

SMILES	Vaccinia Venus	VACV mCherry inh
CC(C)c1cc(C(=O)N(C)C2CCCN(Cc3ccccc3F)C2)n(C)n1 (stereo not drawn)	-16%	?
Cc1cc(C(=O)CSc2nnc(-c3ccccc3)n2-c2ccccc2)c(C)n1-c1ncn[nH]1	-21%	-24%
Cn1cccc1C(=O)OCC(=O)N1CCN(c2ccccc2)CC1	1%	i
CCn1c(SCC#N)nc2ccccc2c1=O	-20%	17%
CC(=O)c1cccc(NC(=O)COc2ccc(S(=O)(=O)N3CCOCC3)cc2)c1	2%	-4%
CC1(C)CC(=O)C=C(c2ccc(-c3ccccc3)cc2)C1	-13%	-13%
CSC1=NC2(CC(c3ccccc3)Oc3cc(O)ccc32)CC(C)(C)N1 (stereo not drawn)	-15%	/
COc1ccc2c(c1OC)C(=O)O[C@H]2[C@@H]1c2cc3c(cc2CCN1C)OCO3	-19%	i
O=C(NCCOc1ccccc1)[C@@H]1CCCN1C(=O)c1cccs1	3%	i
COc1cccc(-c2ccc(C#N)c(OC(=O)c3c(Cl)cccc3Cl)n2)c1	?	?
Cc1nc(Nc2ccc(Cl)cc2)cc(-c2ccccc2)n1	3%	-6%
O=C(CN(Cc1ccccc1)C(=O)CCC(=O)Nc1ccccn1)NCc1ccco1	-17%	/
Cc1ccccc1-n1c(-c2ccco2)n[nH]c1=S	-12%	i
Cc1ccccc1N(C(=O)Cn1nnc(-c2ccc(F)cc2)n1)C(C(=O)NC(C)(C)C)c1ccncc1 (stereo not drawn)	-2%	-8%
CCOc1ccc(-n2nc3ccc(NC(=O)c4cccc(F)c4)cc3n2)cc1	7%	6%
CC(C)C[C@H](NC(=O)C1CCN(S(=O)(=O)c2ccccc2)CC1)C(=O)NCc1cccnc1	-7%	-7%
O=C(Nc1ccc(NC(=O)c2cccnc2)cc1)c1ccccc1	0%	-4%
O=C(Cc1cccc2ccccc12)NNC(=O)Nc1cccc(Cl)c1	?	-18%
CC(C)C1C(=O)N(Cc2cn(CCC3OCCO3)nn2)CCS(=O)(=O)N1Cc1ccc(-c2ccccc2)cc1 (stereo not drawn)	?	-13%
O=C1Nc2cc(Cl)c(Cl)cc2N(O)N1c1cccc(Cl)c1	-9%	-10%
Cn1ccnc1SCCNC(=O)C1CCC(=O)N(Cc2ccc(Cl)cc2)C1 (stereo not drawn)	-8%[7.34 µM]	i[7.34 µM]
Cc1ccc(CN2C(=O)CCC2C(=O)NCc2ccco2)cc1 (stereo not drawn)	-17%	i
O=C(NCCc1c[nH]c2ccccc12)c1ccc([N+](=O)[O-])o1	?	?
Cc1cc(S(=O)(=O)Nc2ccc3c(c2)COC3=O)ccc1F	-9%	-10%
CC(=O)Nc1ccc(S(=O)(=O)Nc2cccc(-c3cn4cccnc4n3)c2)cc1	-3%	-7%

Individual results from above.
Value for Cc1cc(S(=O)(=O)Nc2ccc3c(c2)COC3=O)ccc1F under VACV mCherry inh: -10%
Value for O=C(NCCOc1ccccc1)[C@@H]1CCCN1C(=O)c1cccs1 under Vaccinia Venus: 3%

Structures shown so far with fluorine:
SMILES	Vaccinia Venus	VACV mCherry inh
CC(C)c1cc(C(=O)N(C)C2CCCN(Cc3ccccc3F)C2)n(C)n1 (stereo not drawn)	-16%	?
Cc1ccccc1N(C(=O)Cn1nnc(-c2ccc(F)cc2)n1)C(C(=O)NC(C)(C)C)c1ccncc1 (stereo not drawn)	-2%	-8%
CCOc1ccc(-n2nc3ccc(NC(=O)c4cccc(F)c4)cc3n2)cc1	7%	6%
Cc1cc(S(=O)(=O)Nc2ccc3c(c2)COC3=O)ccc1F	-9%	-10%

Other results follow:
SMILES	Vaccinia Venus	VACV mCherry inh
Clc1ccc(-c2nc3ccc(Br)cn3c2Cc2cccc(Cl)c2)cc1	-28%	5%
COc1ccc(NC(=O)N(C)[C@H]2C[C@H]3c4[nH]c5ccc(-c6ccc7c(c6)OCO7)cc5c4CCN3C[C@H]2[C@H](C)O)cc1	?	?
O=C(COC(=O)C1CCN(S(=O)(=O)c2c(Cl)cccc2Cl)CC1)NCc1ccco1	-13%	-9%
CC(NS(=O)(=O)c1ccc(Br)cc1F)[C@H](O)c1ccccc1 (stereo partly drawn)	-13%	-1%
CCOC(=O)c1nnn(C(CC)C(=O)Nc2c(C)cccc2C)c1C(=O)OCC (stereo not drawn)	-8%	0%
Cc1ccc(S(=O)(=O)CC(CN2CCOCC2)N2CCOCC2)cc1 (stereo not drawn)	10%	-1%
O=C(Nc1ccccc1C(=O)N1CCCCCC1)c1ccc(Cl)cc1	-1%	-6%
COc1ccccc1-n1c2nc3ccccc3nc2c2c(=O)n(-c3cc(C)cc(C)c3)cnc21	-22%	-26%
COc1cccc(CNC(=O)CCn2cnc3ccccc3c2=O)c1	2%	-11%
O=C(NCC(=O)N1CCN(S(=O)(=O)/C=C/c2ccccc2)CC1)c1ccc(Cl)cc1	-16%	24%
Oc1cccc(Nc2ncnc3ccccc23)c1	-9%	-25%
CCCCC(=O)OCc1c(-c2ccccc2)ncc2ccccc12	-12%	i
Cc1ccc([N+](=O)[O-])cc1NC(=O)Nc1ccc(S(N)(=O)=O)cc1	-8%	-21%
O=c1cc(N2CCN(c3ccc(F)cc3)CC2)[nH]c(=O)n1-c1cccc(Br)c1	-21%	-25%
Cc1ccc2nc3c(cc(C(=O)NC4CCCCC4)c(=N)n3C3CCCCC3)c(=O)n2c1	-5%	-15%
Cc1cc(=O)oc(C)c1C(=O)NCCc1ccc(F)cc1	3%	i
N=C(N)c1c(O)n(C2CCCCC2)c(=O)n(C2CCCCC2)c1=O	?	/
CCOC(=O)C1=CN(C(C)C)CCC1=O	-2%	i
Nc1nc2c(F)cccc2s1	0%	-12%
CC1(C)CC(=O)C2=C(C1)OC(N)=C(C#N)C21C(=O)N(Cc2ccccc2Cl)c2ccccc21 (stereo not drawn)	-10%	/
CCc1nnc(NS(=O)(=O)c2ccc(NC(=S)NC(=O)/C=C/c3ccc(C(C)C)cc3)cc2)s1	-13%	-3%
CCC(NC(=S)Nc1ccccc1)C(=O)O (stereo not drawn)	4%	-13%
COCCCNC(=S)N(CCN(C)C)Cc1cc2cc3c(cc2[nH]c1=O)OCCO3	-8%	-4%
CCC(=O)N/C(=N/c1nc(C)cc(C)n1)Nc1ccc(OC)cc1	-6%	-11%
CCCNC(=O)C(Cc1ccccc1)NC(=O)c1ccc(-c2ccccc2)cc1 (stereo not drawn)	-2%	-7%

(continued)
SMILES	Vaccinia Venus	VACV mCherry inh
CCCCn1c(SCC(=O)OCC)nc2c1c(=O)[nH]c(=O)n2C	-9%	i
CCOc1ccccc1NC(=O)NCCn1c(=O)oc2ccc(C)cc21	3%	-11%
CC1=NN(c2ccc([N+](=O)[O-])cc2)C(=O)/C1=C\N(C)C	-10%	-22%
CCOC(=O)c1sc2nc(C)nc(NCc3cccnc3)c2c1C	-1%	-11%
CSCCC1NC(=O)N(CC(=O)Nc2ccc(Cl)c(S(=O)(=O)N3CCOCC3)c2)C1=O (stereo not drawn)	-9%	-8%
Cc1nc(NC(=O)c2ccc([N+](=O)[O-])cc2Cl)sc1C(=O)N(C)C	-3%	-10%
CN(CC(=O)Nc1ccccc1F)CC(=O)Nc1ccccc1Br	6%	4%
CCN(Cc1ccccc1)C(=O)CSc1nncn1C	-10%	-12%
C=C1C2(C(=O)NCc3ccco3)CCC(C2)C1(C)C (stereo not drawn)	-12%	-18%
CC(NC(=O)OCc1ccccc1)C(=O)Oc1cc2oc(=O)cc(-c3ccccc3)c2cc1Cl (stereo not drawn)	-4%	-14%
O=C1C=CN(C(=O)Oc2ccccc2)CC1	3%	-14%
CCCn1c(NC(=O)C2CCN(S(=O)(=O)c3cccs3)CC2)nc2ccccc21	?	-26%
CCNc1nc(NC(C)C)nc(OCCNS(=O)(=O)c2cc(C)ccc2C)n1	?	-10%
Cc1ccc2oc(-c3cccc(NC(=O)c4cccc5c(Cl)cccc45)c3)nc2c1	-3%	-11%
Cc1csc(=O)n1CC(=O)OCC(=O)Nc1ccc(Cl)cc1F	3%	-15%
CCN(CC)S(=O)(=O)c1ccc2[nH]cc(C(=O)NCCCN3CCCCC3C)c(=O)c2c1 (stereo not drawn)	-7%	-1%
O=C(NC1CCCCC1)C(c1ccccc1)N(C(=O)Cc1ccsc1)c1ccccc1 (stereo not drawn)	-10%	-9%
CNc1cncc(-c2ccc(O)cc2C)n1	-3%	i
COc1ccccc1NC(=O)CSc1nnc(Cn2c(=O)sc3ccccc32)n1C	-11%	-7%
CCCCn1c(SCC(=O)Nc2ccc(OCC)cc2)nc2ccsc2c1=O	-6%	-6%
C[C@@H]1CN([C@@H](C)CO)C(=O)c2cc(NC(=O)Nc3ccc4c(c3)OCO4)ccc2O[C@H]1CN(C)S(=O)(=O)c1cn(C)cn1	1%	i
O=S(=O)(Cc1ccc(Cl)cc1)N1CCN(Cc2ccc3c(c2)OCO3)CC1	-7%[7.34 µM]	-13%[7.34 µM]
COc1ccc(C(=O)c2ccc(OC)c(OC)c2OC)cc1	-26%	-6%
Cn1nnnc1Sc1ncnc2scc(-c3ccccc3)c12	?	?
Cc1ccccc1-c1nn2c(=O)cc(CN3CCN(C(=O)COc4ccccc4Cl)CC3)nc2s1	-16%	-19%

Arranged by formula weight (ascending): part of the list above.
SMILES	Vaccinia Venus	VACV mCherry inh
CCCCn1c(SCC(=O)OCC)nc2c1c(=O)[nH]c(=O)n2C	-9%	i
CCNc1nc(NC(C)C)nc(OCCNS(=O)(=O)c2cc(C)ccc2C)n1	?	-10%
O=C(NC1CCCCC1)C(c1ccccc1)N(C(=O)Cc1ccsc1)c1ccccc1 (stereo not drawn)	-10%	-9%

Remaining list, next part:
SMILES	Vaccinia Venus	VACV mCherry inh
CC(C)OC(=O)c1cccnc1N1CCN(c2cccc(Cl)c2)CC1	-10%	-5%
Cc1ccccc1Oc1ccc2c(c1)[C@@H]1C[C@H](N(C)C(=O)NC3CCCCC3)[C@H]([C@H](C)O)C(=O)N1CC2	-7%	i
COc1ccc(C(=O)Nc2ncccc2C)cc1S(=O)(=O)N1CCCc2ccccc21	-11%	-17%
CCc1nc2ccc(C(=O)N3CCN(c4cc(Cl)ccc4C)CC3)cc2nc1CC	-16%	-19%
Cc1nc2c(C)cccn2c(=O)c1NC(=O)c1cccc2ccccc12	0%	-2%
Cc1cccc(NC2=C/C(=N/S(=O)(=O)c3cccs3)c3ccccc3C2=O)c1	0%	i
CCc1ccc(OCC(=O)Nc2ccc3oc(-c4ccc(OC)cc4)nc3c2)cc1	-7%	-6%
COc1ccc(Cn2nnnc2C(c2ccccn2)N2CCN(c3ccc(O)cc3)CC2)cc1 (stereo not drawn)	-12%	-7%
Cc1ccc(S(=O)(=O)NC(=O)C2(C)CCN2C(=O)c2ccc(C(F)(F)F)nc2C)cc1 (stereo not drawn)	1%	33%[activator]
N#CC1C(=O)NC(=O)CC12CCCCC2 (stereo not drawn)	-8%	i
Cc1cnc(C(=O)N2CCCC(C(=O)c3ccc(C(F)(F)F)cc3)C2)cn1 (stereo not drawn)	-6%	-11%
NS(=O)(=O)c1ccc(CCN=Cc2ccccc2O)cc1	3%	-13%
CCN(CC)c1ccc(/C=N/NS(=O)(=O)c2cccc([N+](=O)[O-])c2)cc1	-13%	-1%
O=C(Nc1ccc(S(=O)(=O)NCc2cccnc2)cc1)c1ccco1	?	?
O=C(Cc1ccc([N+](=O)[O-])cc1)N1CCCc2ccccc21	-2%	1%
Cc1ccc(-n2ncc3c(N4CCCCC4)ncnc32)cc1	-1%	-13%
O=P(O)(O)/C=C(\Cl)c1ccccc1	-9%	-13%
C[C@]12C[C@@H](O)[C@H](O)CC1=CCC1C2CC[C@@]2(C)C1CC[C@@H]2O (stereo partly drawn)	-4%	i
CCc1cc(OCCOCCN(C)C)ccc1Cl	-10%	-12%
CCc1ccc2[nH]c(=O)c(CN(Cc3nnnn3C3CCCC3)C3CCCCC3)cc2c1	-24%	-15%
Cc1cccc(C)c1-n1ncc(C(=O)N2CCN(c3ccccn3)CC2)c1C1CCN(C(=O)OC(C)(C)C)CC1	-15%	-13%
COc1ccc(CN2CCc3nc(N4CCN(c5ccc(F)cc5)CC4)ncc3C2)c(OC)c1OC	?	?
O=C(O)C1CCCC[C@H]1C(=O)Nc1ncc([N+](=O)[O-])s1 (stereo partly drawn)	-12%	-10%
COc1ccc(Nc2nc3c(S(=O)(=O)c4ccccc4)nnn3c3ccc(Cl)cc23)cc1OC	-12%	-17%
Cc1noc(C)c1COC(=O)c1cc(S(=O)(=O)N2CCOCC2)ccc1Cl	-12%	-11%

(cont.)
SMILES	Vaccinia Venus	VACV mCherry inh
Cc1oc(-c2ccccc2F)nc1CS(=O)CC(=O)NC1CCCCC1 (stereo not drawn)	-19%	i
COc1ccc(/C=N/NC(=O)c2ccccc2)cc1CN1CCN(c2ccc(F)cc2)CC1	-6%	-23%
CN(C(=O)c1cccc(NC(=O)Cc2ccc(NC(=O)C3CCN(C(=O)C4CCC4)CC3)cc2)c1)C1CCCCC1	-17%	-19%
COc1ccc([N+](=O)[O-])cc1NC(=O)CCN1CCOCC1	-15%	-1%
COc1ccc(C(=O)NC(=S)N2CCCCC2)cc1	-4%	0%
CN(C)c1nc(-c2ccoc2)nc2ccccc12	95%[activator]	105%[activator]
COC(=O)c1sc(=S)n(Cc2ccccc2)c1C	-10%	-15%
CCOC(=O)c1ccccc1OC(=O)Oc1ccccc1C(=O)OCC	-4%	-8%
O=C(c1ccccc1)N1CCN(C(=O)c2cc3ccccc3o2)CC1	-13%	i
Cc1ccc(NC(=O)C(=O)NC2CCCCC2)cc1	1%	/
O=C(c1nc[nH]c1C(=O)N1CCc2ccccc2C1)N1CCc2ccccc2C1	-9%	-14%
